# T cruzi repl: inhibitors of intracellular T. cruzi growth, primary screen, luminescence, NIH3T3 host cells; inhibition, % (concentration not given with the values); 300,000 compounds, 1.4% hits; T. cruzi beta-gal in NIH3T3, 90 h; AID 1885, 2009;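 active = mean inhibition across valid replicates above about 55%, limit read from the data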;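 also: signal also drops with host cell toxicity which is not excluded here; 0% = plate median of DMSO wells and 100% = zero luminescence signal; higher percent means less beta-gal luminescence so fewer parasites; stock transfer was 50 nL into about 50 µL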
# A1 inh: caspase 3/7 activation in MEF A1-2A-BIM cells, primary screen, A1 inhibitor project, cell-based, luminescence, HTS; Caspase-Glo 3/7 luminescence, 3 h; percent of clofoctol response, vehicle zero; caspase activation, % (concentration not given with the values); 330,000 compounds, 0.066% hits; AID 2462, 2010;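 active = over half of replicate activation scores above 10%, or exactly half above 10 with the replicate mean above 10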;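 also: wells of about 30 µL received 50 nL stock; many hits fall short of the cut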
# MLL AF4-AF9 inh: inhibitors of AF4 peptide binding to AF9, primary screen, biochemical, AlphaScreen, biotin-AF4 peptide, FLAG-AF9, single point. Protein AF-9 (Homo sapiens), P42568. inhibition, % at 10 µM. 350,000 compounds, 0.47% hits. AID 651704, 2012;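 active = every replicate reaching a set inhibition limit, whatever the replicate mean, cut at about 25% in these data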;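 also: 0% = plate neutral control median and 100% = total signal loss; the record names both 10 and 1 µM as test concentration; the first replicate is given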
# Target sequence (P42568 whole entry, looked up): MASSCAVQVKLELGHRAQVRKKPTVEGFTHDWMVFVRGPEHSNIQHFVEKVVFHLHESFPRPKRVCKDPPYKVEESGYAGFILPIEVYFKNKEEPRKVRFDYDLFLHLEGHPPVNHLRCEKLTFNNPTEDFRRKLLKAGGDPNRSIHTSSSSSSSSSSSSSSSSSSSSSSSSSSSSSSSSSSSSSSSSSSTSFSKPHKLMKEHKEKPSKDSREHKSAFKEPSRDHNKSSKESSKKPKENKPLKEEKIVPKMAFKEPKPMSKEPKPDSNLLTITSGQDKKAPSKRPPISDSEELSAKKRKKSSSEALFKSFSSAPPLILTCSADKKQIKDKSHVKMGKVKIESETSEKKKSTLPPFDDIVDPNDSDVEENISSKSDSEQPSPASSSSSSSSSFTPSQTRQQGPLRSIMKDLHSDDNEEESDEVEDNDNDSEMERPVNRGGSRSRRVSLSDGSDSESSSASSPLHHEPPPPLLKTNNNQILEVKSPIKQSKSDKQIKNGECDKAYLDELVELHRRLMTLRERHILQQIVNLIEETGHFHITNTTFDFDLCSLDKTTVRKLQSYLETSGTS
# Ecoli growth: E. coli growth inhibition, primary screen, OD600 | Escherichia coli growth, 23 h; hits give low values | OD600 absorbance (concentration not given with the values) | 330,000 compounds, 0.21% hits;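 active = OD600 absorbance below the run mean of sample wells minus 3.6 SD, in any replicate, cut at about 0.56 in these data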;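 also: stock transfer was 300 nL into about 60 µL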
# FGF22 binding: binders of human FGF22 protein, primary screen, FGF22 synaptogenesis inhibitor project, biophysical, thermal shift, single point. 340,000 compounds, 1.5% hits. recombinant FGF22 thermal shift, SYPRO orange fluorescence; percent of sucrose octasulfate shift, DMSO zero. calls only at 9.99 µM. AID 651658, 2012;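 active = melting point raised past a set limit in the mean and every replicate; three in four hits are not shown here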
# Target sequence (Q9HCT0 whole entry, looked up): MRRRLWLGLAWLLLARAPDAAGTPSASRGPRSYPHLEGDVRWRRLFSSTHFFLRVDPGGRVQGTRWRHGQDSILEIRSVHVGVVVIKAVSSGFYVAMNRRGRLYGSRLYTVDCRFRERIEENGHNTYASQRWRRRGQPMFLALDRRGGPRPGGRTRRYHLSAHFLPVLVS
# Ecoli rRNA inh: reduced GFP signal of wild-type E. coli, primary screen, bacterial rRNA inhibitor project, GFP/RFP fluorescence, OD600, single point. E. coli WT GFP vs humanized-ribosome RFP mutants, 24 h; hits give low values; DMSO median 0, no signal -100. GFP signal change (wild-type ribosome), % (test concentration not listed). 350,000 compounds, 1.6% hits. AID 720706, 2013;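 active = significant combined selectivity score with lowered wild-type GFP, culture density cut under 30%, mutant RFP and density less affected; inactive = any of these conditions unmet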; also: one replicate is shown; some compounds called inactive have numbers as strong as hits
# UCH37 DUB inh: inhibitors of human UCH37 deubiquitinase, primary screen, biochemical, Ub-AMC cleavage, fluorescence | Ubiquitin carboxyl-terminal hydrolase isozyme L5 (Homo sapiens), Q9Y5K5 | purified proteasome/UCH37 | inhibition, % (test concentration not listed) | 330,000 compounds, 0.33% hits;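 active = mean of two replicates above 20%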;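 also: 0% = compound-free wells with enzyme and 100% = wells lacking proteasome; stock transfer was 100 nL into about 20 µL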
#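 Material: Human UCH37 enzyme supplied as purified proteasome complex | Schedule: 30 min compound-proteasome preincubation then 25 min substrate reaction, room temperature | Detection: AMC fluorescence from Ub-AMC cleavage, excitation 355 nm, emission 460 nm | Benchmarks: Wells without proteasome as full block, compound-free enzyme plus substrate as uninhibited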
# Beta cell apopt: inhibitors of cytokine-induced beta cell apoptosis, primary screen, luminescence | protection from apoptosis, % (test concentration not listed) | INS-1E cytokine-induced death, ATP luminescence, 48 h; percent of positive-control rescue, neutral wells zero | AID 435005, 2010 | 300,000 compounds, 0.8% hits;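 active = all replicates at 75% or more, or half of them and the mean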;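 also: 0% = cytokine-treated negative control wells and 100% = positive control rescue; higher means more ATP so stronger rescue from cytokine killing; wells of about 40 µL received 100 nL stock; the first replicate is given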
# Ecoli rRNA inh OD600: further read-out of Ecoli rRNA inh, marked with its call; OD600 change, %; measured here: OD600 growth;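 optical density of the mix in the first replicate; 0 = DMSO median and -100 = no signal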
# Ecoli rRNA inh RFP: second read-out of Ecoli rRNA inh, no call of its own (marks repeat the call); RFP signal change, %; measured here: RFP humanized mutant strains;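 first replicate; 0 = DMSO median and -100 = no signal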
# Active calls of the source: *; i = inactive; x = not tested or not shown. Some of the compounds tested; count on the stated rates, not on these rows.
canonical_smiles	T cruzi repl	A1 inh	MLL AF4-AF9 inh	Ecoli growth	FGF22 binding	Ecoli rRNA inh	Ecoli rRNA inh OD600	Ecoli rRNA inh RFP	UCH37 DUB inh	Beta cell apopt
O=C(N/C=C\c1ccccc1)NCc1ccc(Cl)cc1	-7	-0.4	x	0.67	x	x	x	x	2.2	-8
COCCn1c(SCC(=O)Nc2cc(C)cc(C)c2)nnc1C(C)C	10	0.1	x	0.62	x	x	x	x	2.2	-7
S=C1SCN(Cc2cccnc2)CN1Cc1cccnc1	-6	0.0	-4.0	x	i	-29*	-13*	-1.6*	x	x
CCOC(=O)c1c(CNCCN(CC)CC)n(C)c2cc(Br)c(OC)cc12	15	0.3	x	0.78	x	x	x	x	1.0	-5
O=C(NCc1ccccc1Cl)C1CCCN(c2ncnc3c2nc2n3CCCCC2)C1 (centres undefined)	0	0.1	-1.1	0.66	i	-13	5	12	0.6	4
Cc1cc(C)n(/C(=C\N(C)C)C(=O)c2ccc(Cl)cc2)n1	-6	-0.5	-0.7	0.7	i	11	7	-1.3	6.9	-5
CC1=C(C(=O)Nc2ccc(CC(=O)NCc3ccc(OC(C)C)cc3)cc2)SCCO1	19	0.8	-3.2	0.69	i	-2	-11	7.4	1.2	18
CCc1ccccc1NC(=O)CN(C1CCCCC1)S(C)(=O)=O	-6	1.0	0.3	0.61	i	7	-1	1.1	3.7	-2
Cc1nn(-c2cc(N(S(C)(=O)=O)S(C)(=O)=O)c(Cl)cc2Cl)c(=O)n1C	2	0.1	-2.8	0.64	i	x	x	x	2.1	x
O=C(Cc1c(F)cccc1Cl)Nc1cc(S(=O)(=O)N2CCOCC2)ccc1N1CCOCC1	x	x	3.9	0.72	i	-7	-7	1.0	3.3	x
O=C1CC(c2ccccc2)c2ccc(O)cc2O1 (centres undefined)	-19	0.9	x	0.69	x	x	x	x	4.0	-3
COc1ccc(-c2cc(C(=O)NCCN3CCOCC3)no2)cc1OC	3	-0.2	1.4	0.69	i	10	8	-1.0	2.5	-2
CN(C)c1cc(Nc2cccc(O)c2)c([N+](=O)[O-])c2nonc12	7	-0.2	-2.6	0.71	i	5	4	-2.5	3.6	10
CCOc1cc(NC(=S)NCCCN2CCOCC2)c(OCC)cc1NC(=O)c1ccccc1	-1	1.4	-0.6	0.69	i	11	11	0.8	-412	x
O=C(COc1ccc(Cl)cc1)NCCS(=O)(=O)N1CCN(c2ccccc2F)CC1	-8	-0.4	0.9	0.68	i	-6	4	-5.5	2.9	-3
CCOc1ccc(NC(=O)C2CCCN(S(=O)(=O)c3ccc4c(c3)CCCN4C(C)=O)C2)cc1 (centres undefined)	20	-0.1	-0.1	0.62	i	-1	-9	1.7	-2.7	-2
CCN(Cc1ccccc1)C(=O)c1nn(-c2ccc(OC)cc2)c(=O)c2c1c1ccccc1n2C	37	0.3	-1.3	0.75	i	-5	-6	0.2	-9.1	-1
CCN(Cc1ccccc1)S(=O)(=O)c1c(N)n(C)c(=O)n(C)c1=O	5	0.7	1.1	0.7	i	4	11	-1.4	-2.4	-1
CCOC(=O)N1CCC(=C2c3ccc(Cl)cc3CCc3cccnc32)CC1	12	-1.0	0.6	x	i	x	x	x	3.0	-1
COc1ccc(-c2[nH]ncc2/C=N\NC(=O)c2cccs2)cc1OC	x	-0.6	1.7	x	i	-3	5	0.7	x	-3
O=C(NCc1ccccc1)/C(=C/c1ccc([N+](=O)[O-])cc1)NC(=O)c1ccco1	1	-1.1	0.2	0.69	i	-3	5	-1.3	7.6	3
COc1cccc(-n2c([S-])c(C(=O)Nc3ccc(S(=O)(=O)N4CCOCC4)cc3)[n+]3cc(C(N)=O)ccc23)c1	-6	-0.4	-4.7	0.72	i	7	3	4.7	-5.1	-1
CC(=O)Oc1ccc(N2C(=O)C3C4C=CC(C5CC45)C3C2=O)cc1[N+](=O)[O-] (centres undefined)	-3	0.7	-3.4	0.69	i	16	1	5.2	4.7	0
COc1cccc(C2CC(=O)Nc3cc(OC)c(OC)c(OC)c32)c1OC (centres undefined)	3	0.2	x	0.78	x	x	x	x	0.3	-12
CCOC(=O)c1nnn(-c2nonc2-n2cccc2)c1C	-4	1.2	x	0.7	x	x	x	x	0.8	1
COc1ccc(NC(=O)N(C)C[C@H]2Oc3c(NC(=O)NC(C)C)cccc3C(=O)N([C@H](C)CO)C[C@@H]2C)cc1	x	0.0	-22	0.7	i	-6	8	-8.0	2.0	1
CC1CC(c2ccccc2)n2nc(NC(=O)c3cccs3)nc2N1 (centres undefined)	6	-0.1	x	0.78	x	x	x	x	1.1	6
O=C(CSc1nccc2ccccc12)N1CCN(c2ccccn2)CC1	-19	-0.5	-0.9	0.74	i	0	-1	0.0	7.1	1
CCN(CC(=O)Nc1ccc2c(c1)OCCO2)C(=O)c1cccc(S(=O)(=O)N2CCOCC2)c1	-5	-0.3	x	0.69	x	x	x	x	6.0	-6
Cc1ccccc1C(=O)Nc1nnc(-c2ccc(C(C)(C)C)cc2)s1	-7	0.3	x	0.7	x	x	x	x	-2.5	1
COC(=O)C1CN(S(=O)(=O)c2cc(OC)ccc2OC)CCS1 (centres undefined)	-6	-0.3	0.0	0.66	i	6	11	-1.0	-4.9	-7
N#Cc1nc(Cc2cccc3ccccc23)oc1NCCN1CCCCC1	0	0.1	x	0.72	x	x	x	x	2.1	1
Cc1nc2ccccc2n1/N=C/c1ccc([N+](=O)[O-])s1	39	-0.2	-57	x	i	-11	-3	-5.1	x	109*
CCN(CC(=O)NCc1ccc(Cl)cc1)C(=O)CSc1cccc(C(F)(F)F)c1	9	0.3	-3.9	0.67	i	0	9	0.1	0.6	-1
O=C(COC(=O)c1cccs1)NCc1ccco1	-9	0.3	x	0.76	x	x	x	x	-2.6	-5
Cc1cccc(N2C(=O)C(Oc3ccc(Cl)cc3Cl)C2C(=O)O)c1C (centres undefined)	-9	0.7	x	0.71	x	x	x	x	2.3	-3
Cc1ccccc1Cn1cc(NC(=O)c2nn(C)cc2Cl)cn1	-8	-0.3	3.7	0.67	i	-19	4	9.6	4.8	2
Clc1ccc(C=NC23CN4CN(CN(C4)C2)C3)cc1	-4	0.7	x	0.69	x	x	x	x	2.4	6
CCC(=O)n1nc(-c2cccnc2)nc1NCc1ccc(OC)cc1	-5	0.0	x	0.74	x	x	x	x	2.7	x
Cc1cc(Nc2ccc3c(c2)OCCO3)c2cccc(C)c2n1	32	0.4	x	0.63	x	x	x	x	5.8	34
CCC(C)(C)NC(=O)C(c1cccc(OC)c1OC)N(Cc1ccccc1)C(=O)CCC(=O)Nc1cc(C)on1 (centres undefined)	18	-0.9	4.5	0.68	i	0	0	-0.4	4.7	0
COc1ccc(N2CC(NS(=O)(=O)c3cccs3)CC2=O)cc1 (centres undefined)	-8	-0.6	-3.5	0.62	i	1	7	0.0	3.6	-3
O=[N+]([O-])c1ccc(S(=O)(=O)NN=Cc2ccc(Cl)c(Cl)c2)cc1	x	x	1.7	0.67	i	-3	-11	-3.9	6.0	x
CN(C)CCN(C)Cc1c2ccccc2c(CN(C)CCN(C)C)c2ccccc12	16	-0.3	7.4	0.66	i	6	7	0.1	-1.0	-1
Cc1ccc(NC(=O)Cc2noc3ccccc23)nc1	-12	-0.2	1.8	0.68	i	-8	-2	-2.6	3.0	-2
CSc1ccc(Cl)c(C(=O)NCc2ccco2)c1	-5	0.1	x	0.77	x	x	x	x	4.2	-5
Cc1ccccc1-c1noc(CCC(=O)NCc2ccco2)n1	-7	-0.6	-3.0	0.68	i	7	5	4.8	-0.2	-5
CC(=O)Nc1ccc2[nH]c(C)c(CC=C(Cl)Cl)c(=O)c2c1	21	0.0	-10	0.7	x	x	x	x	-15	x
CC(=O)N1CCN=C1SCc1ccccc1Cl	-11	0.5	-5.5	0.74	i	5	10	0.4	9.0	-2
CC1(C)Cc2c(c(=S)nc(-c3ccccc3)n2CCOCCO)CO1	-14	0.7	x	0.69	x	x	x	x	6.7	7
Cc1ccc(S(=O)(=O)N2CCN(C(=O)c3cc(=O)[nH]c4ccccc34)CC2)c(C)c1	-9	0.2	x	0.71	x	x	x	x	-7.6	1
CCn1cnc2c1c(=O)n(Cc1cccc([N+](=O)[O-])c1)c(=O)n2Cc1ccccc1	20	-0.4	8.9	0.67	i	-3	-2	-0.5	0.0	-7
CC(=O)c1ccccc1NC(=O)c1ccc2c(c1)NC(=O)C(C)S2 (centres undefined)	17	-1.3	6.0	0.64	i	-8	3	6.6	-9.4	4
COc1ccc(NC(=O)CNCCC2=CCCCC2)cc1	10	0.7	x	0.69	x	13	12	2.1	2.3	4
Clc1ccc(CSc2nnc(/C=C/c3ccccc3)o2)cc1	-1	0.4	x	0.78	x	x	x	x	2.3	-2
COc1ccc(OCCn2c(NC(=O)c3ccco3)nc3ccccc32)cc1	25	-3.5	x	0.71	x	x	x	x	-1.8	16
O=C(CSc1cccc2cccnc12)Nc1ccccc1F	9	0.8	1.0	0.65	i	3	2	-0.4	-78	9
COc1ccc(C(CCN2CCCC(C)C2)c2c(OC)cc(OC)c3c2OC(=O)CC3c2cc(OC)c(OC)c(OC)c2)cc1 (centres undefined)	13	1.4	x	x	x	x	x	x	0.0	-7
O=C(NC1CC1)C1CCN(c2ccc(S(=O)(=O)N3CCOCC3)cc2Cl)CC1	-9	1.1	x	0.65	x	x	x	x	0.5	1
Cc1ccc(-c2c(C#N)c(N)nc3c2CCCCCC3)o1	2	-0.5	x	0.62	x	x	x	x	-104	4
O=C(C1CCN(Cc2ccc(F)cc2)CC1)N(CCO)Cc1ccccc1	1	-0.3	x	0.78	x	x	x	x	3.5	0
Cc1c(C(=O)N2CCN(CCc3ccccn3)CC2)oc2ccc(F)cc12	5	1.3	0.0	0.7	i	-4	-2	-1.0	2.1	1
CCOCCCNC(=S)N1C2CCC1CC(NC(=O)NC1CCCCC1)C2 (centres undefined)	0	0.0	5.2	0.68	i	16	14	3.3	-0.9	-5

# Screens (PubChem BioAssay)
